Assay outcomes deposited in PubChem BioAssay by Fisher Drug Discovery Resource Center.
NPYLR7 agonist = mosquito NPYLR7 agonism. HEK293T NPYLR7/Galpha15, GCaMP6s calcium fluorescence. activation, % at 10 µM. hit rate 0.15% among 270,000; in the data active = activation above about 40%;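 note: 0% = vehicle and 100% = reference agonist at the receptor; some compounds past the cut are filed as inactive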
NPYLR7 agonist max-min = second read-out of NPYLR7 agonist, no call of its own (marks repeat the call); activation, %; measured here: Max-Min RFU normalised activation; some inactives read as strong as hits;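 span of the calcium signal over five minutes; 0% = vehicle and 100% = native peptide agonist; compound fluorescence can raise it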
* hit, by the source's call; & = joins results of further samples. The list is partial. The share of hits here may be higher or lower than overall.

SMILES | NPYLR7 agonist | NPYLR7 agonist max-min
Cc1ccsc1[C@@H]1CCN(C(=O)CCn2nnc3ccccc32)C[C@H]1O | -1 | -6
O=C(c1ccc(-c2ccccc2)c(F)c1)C1CCCN(C(=O)c2cncs2)C1 (stereo not given) | 1 | -1
CNC(=O)Cc1ccc(-c2cccnc2OC)cc1 | 3 | -1
COc1ccccc1C(=O)N1CCN(CCC(C)c2ccc(C)o2)CC1 (stereo not given) | 5 | 3
COc1cc2c(cc1OC)C(c1ccc(F)cc1)N(C(=O)c1ccccc1C(F)(F)F)CC2 (stereo not given) | 6 | -3
CCOC(=O)c1sc(Br)nc1C(C)(C)C | 10 | 2
COc1cccc(NC(=O)NCC2CCC(=O)N2)c1 (stereo not given) | -11 | 484
CCN(CC1CCN(Cc2ccccc2)C1)C(=O)Cc1csc(N2CCCNC2=O)n1 (stereo not given) | 8 | 5
O=C(CSc1ccc(C(F)(F)F)cn1)N1Cc2cccc3cccc(c23)C1 | -2 | -9
CC(C)(C)NC(=O)CC1(C(=O)OCc2cccc(C#N)c2)CCCC1 | 3 | 3
CCCCC1=NN2C(=N)/C(=C/c3cc(Cl)c(OS(C)(=O)=O)c(OCC)c3)C(=O)N=C2S1 | 0 | 0
CCC(=O)Nc1ccc(N(C)C)c(CN(CCOC)C(=O)c2cccs2)c1 | 13 | 22
COc1ccc(NC(=O)N2CCN(c3nc(C4CC4)nc4sc(C)c(C)c34)CC2)c(OC)c1 | -7 | 5
CC1CCc2sc(C(=O)NC3CCN(CC(=O)Nc4ccccc4)CC3)cc2C1 (stereo not given) | 9 | 12
CC(CN1CCCC1=O)NC(=O)N1CCCC1c1cccc2ccccc12 (stereo not given) | 5 | 3
COC(=O)c1ccc(CSc2nc3c(c(=O)n2-c2ccc(Cl)cc2)SCC3)o1 | 0 | 47
COCCn1c(SCC(=O)N2CCC(C)CC2)nc2c(c1=O)SCC2 | -2 | -4
CNc1cncc(-c2cnc(OC)nc2OC)n1 | 3 | 3
Cc1ccnc(-n2c(SC3CCOC3=O)nc3ccccc3c2=O)c1 (stereo not given) | 0 | -2
CCOC(=O)C1(Cc2ccc(F)cc2F)CCCN(Cc2cccc(OC)c2O)C1 (stereo not given) | 5 | 2
O=c1cc(CNCc2ccc3c(c2)OCO3)nc2ccc(Br)cn12 | 9 | 7
CCN1C(=O)C(c2ccc(O)c(C)c2)(c2ccc(O)c(C)c2)c2ccccc21 | -3 | -9
CCC(NC(=O)N1CCSC(C)(C)C1)c1noc(C)n1 (stereo not given) | -8 | -8
CC(CCc1ccccc1)NC(=O)c1ccc(-c2cccc(C(F)(F)F)c2)s1 (stereo not given) | -1 | 11

Filtered by structure, the compounds so far containing a carbonyl joined to an NH by a bond outside any ring
SMILES | NPYLR7 agonist | NPYLR7 agonist max-min
CNC(=O)Cc1ccc(-c2cccnc2OC)cc1 | 3 | -1
COc1cccc(NC(=O)NCC2CCC(=O)N2)c1 (stereo not given) | -11 | 484
CC(C)(C)NC(=O)CC1(C(=O)OCc2cccc(C#N)c2)CCCC1 | 3 | 3
CCC(=O)Nc1ccc(N(C)C)c(CN(CCOC)C(=O)c2cccs2)c1 | 13 | 22
COc1ccc(NC(=O)N2CCN(c3nc(C4CC4)nc4sc(C)c(C)c34)CC2)c(OC)c1 | -7 | 5
CC1CCc2sc(C(=O)NC3CCN(CC(=O)Nc4ccccc4)CC3)cc2C1 (stereo not given) | 9 | 12
CC(CN1CCCC1=O)NC(=O)N1CCCC1c1cccc2ccccc12 (stereo not given) | 5 | 3
CCC(NC(=O)N1CCSC(C)(C)C1)c1noc(C)n1 (stereo not given) | -8 | -8
CC(CCc1ccccc1)NC(=O)c1ccc(-c2cccc(C(F)(F)F)c2)s1 (stereo not given) | -1 | 11

(more compounds)
SMILES | NPYLR7 agonist | NPYLR7 agonist max-min
O=C(Cc1ccc2c(c1)OCO2)N1CCOC(Cc2ccccc2)C1 (stereo not given) | 27 | 32
O=C(NC1CCCNC1=O)c1csc2nc(-c3ccccc3Cl)cn12 (stereo not given) | -5 | -8
Cc1noc(C)c1CNC(=O)NC(C)(C)c1ccc(F)cc1 | 3 | 2
COCCNC(=O)c1cccc(C2(CNCc3cccc(Cl)c3)CC2)c1 | 11 | 35
COc1ccc(OCCN2CCC(C(=O)N(C)C(c3ccc(F)cc3)c3ncccc3C)CC2)cc1 (stereo not given) | 8 | -4
Cc1ccc(/C=N\NC(=O)CSc2nc3ccccc3[nH]2)o1 | 0 | 6
Nc1cc(-c2ccc(-n3ccnc3)nn2)c2cc[nH]c2n1 | 4 | 1
CCc1cccc(N2C(=O)CSC2c2cccc(NC(=O)c3ccccc3C)c2)c1 (stereo not given) | 16 | 17
Cc1ccc(NC(=O)C(C(C)C)N2CCN(C)CC2)cc1C (stereo not given) | 1 | 1
O=C(Cn1ccnc1)NC(c1ccccc1)c1nccs1 (stereo not given) | 1 | 0
CCc1nsc(NC(=O)C2(C)CCN2C(C)C)n1 (stereo not given) | -1 | -3
O=C1c2ccccc2-c2nc3cc4nc5ccccc5nc4cc3nc21 | 3 | 0
O=S(=O)(NCc1nnc2ccccn12)c1ccc(Cl)cc1 | 9 | 9
CCN1CCN(CCC(=O)Nc2ccc(C)cc2C(=O)N(C)C)CC1 | -1 | 40
O=C(NCC(=O)N1CCc2ccc(Cl)cc21)c1ccsc1 | -1 | -2
CCCCCCCc1ccc(CCc2cccc(O)c2C(=O)O)cc1 | -3 | -7
COc1ccc(C(=O)N2C(=S)C(c3ccccc3)=NC23CCCC3)cc1 | 0 | -6
CC(C)c1nc(C2CCCN2CC(=O)Nc2ccc(Cl)cn2)no1 (stereo not given) | 1 | 1
CC(C(=O)c1ccc(F)cc1)n1cnc(-c2ccc(F)cc2)cc1=O (stereo not given) | -17 | -17
Fc1ccc(C2CCCN2Cc2nc(COc3ccccc3)no2)cc1 (stereo not given) | 13 | 8
COCCNC(=O)CSc1nnc(-c2ccc(=O)n(C)c2)n1C | 2 | 2
Cc1ccccc1-c1ccccc1C(=O)NCCC1CN(C)CCO1 (stereo not given) | 1 | -4
CCOC(=O)C1(C)CCCCN1C(=O)CCc1cccs1 (stereo not given) | 0 | 0
COc1cc(-c2nc3ccc(Br)cn3c2NC2CCCCC2)ccc1OC(=O)c1ccc2ccccc2c1 | 13 | 15
CCC(C)(C)C1CCC2(CC1)N=C(N)Nc1nc3cc4c(cc3n12)OCCCO4 (stereo not given) | -5 | -2
O=C(C1CCCN1S(=O)(=O)c1cccc(Cl)c1Cl)N1CCOCC1 (stereo not given) | 2 | 2
Cc1ccc(-c2ccc(NCc3ccccc3Cl)nn2)cc1S(N)(=O)=O | -15 | -22
CN(Cc1ccc(C(N)=O)cc1)Cn1ncc2ccccc2c1=O | 11 | 8
CC(C)c1ccc(/C=C2N=C(/C=C\c3cccc([N+](=O)[O-])c3)OC/2=O)cc1 | -8 | -3
O=C(C1CCCC1)N1CCN(c2ccc(-n3cccn3)nn2)CC1 | 8 | 6
CC12CCC(C(=O)O)(C(=O)C1=O)C2(C)C (stereo not given) | 3 | 3
CN1C(=O)N(C)C2C1NC(=O)N2CCCC(=O)O (stereo not given) | 4 | 5
CC1(Cc2ccc(C(=O)c3ccccc3)cc2)C(=O)Nc2ccccc21 (stereo not given) | 4 | 1
Cc1csc(C(C#N)C(=O)c2ccc(C(=O)c3cc[nH]c3)cc2)n1 (stereo not given) | 7 | -8
Cc1ccn(-c2ccc(NC(C)C)cc2)n1 | 5 | 14
O=C(O)C1CC=C(Cl)CC1C(=O)Nc1cc([N+](=O)[O-])ccc1O (stereo not given) | 8 | 7
Cc1cc(C(=O)N(Cc2ccco2)c2nc3ccccc3s2)on1 | 7 | 7
CCOC(=O)C1CCCN(C(=O)c2ccc(NC(=O)c3cccs3)cc2)C1 (stereo not given) | 5 | 4
N#Cc1cnc(NCc2ccc(-n3cccn3)nc2)c(Cl)c1 | 1 | 1
O=C(/C=C/c1ccccc1)NC1CC2CCC(C1)N2Cc1ccoc1 (stereo not given) | 2 | 9
Cc1cc(F)c2c(c1)CCCN2CC(=O)NCCc1ccc(F)cc1 | 4 | 0
COc1ccc(/C=C(\C#N)c2nc(-c3ccc(C)cc3)c(NC(C)=O)s2)c(OC)c1 | 1 | 15
COCCNC(=O)COc1ccc(OCCNC[C@H](O)COc2ccccc2)cc1 | -11 | -13
Cc1ccccc1C(=O)N[C@@H]1CCCCC1NC(=O)C1CCCN(S(=O)(=O)c2cccc(C(F)(F)F)c2)C1 (stereo not given in full) | -2 | -2
CC(Cc1ccsc1)NC(=O)c1cc(Cn2cnc3ccccc32)[nH]n1 (stereo not given) | -1 | -11
Cc1ccc2nc(-c3ccc(NC(=O)c4ccc(Cl)c(Cl)c4)cc3)oc2c1 | -3 | -4
C=c1[nH]n(-c2ccccc2)c(=O)c1=CC=C1N(C)c2ccccc2C1(C)C | 19 | 12
Cc1nc(N2CCCCCC2)c2c3c(sc2n1)CCC3 | 1 | -2
COc1ccc(C)cc1C1(CNc2cnn(C)c(=O)c2Cl)CCOCC1 | 1 | 0
Fc1cc(F)cc(Cc2nnc3sc(C(F)(F)F)nn23)c1 | 0 | 0
N#Cc1cccc(C(=O)N2CCN(C3c4ccccc4CCc4ccccc43)CC2)c1 | -5 | 3
C=C1c2cc(OC)c(OC)cc2CCN1C(=O)c1ccccc1[N+](=O)[O-] | 4 | 8
COC(=O)c1ccc(NC(=O)CSc2nc(=O)n(CCCN3CCOCC3)c3c2CCC3)cc1 | -1 | -7
Cc1nc2cc([N+](=O)[O-])ccc2o1 | 3 | 11
CCc1ncc(C(=O)NCc2cccnc2Oc2ccc(C)nc2)cn1 | 1 | 1
O=C(c1ccc2c(c1)OCCO2)C1CCN(C(=O)c2cc(Cl)cc(Cl)c2)CC1 | 5 | 14
CCOc1ccc(CC(=O)Nc2c3c(nn2CC(=O)NCC2CCCO2)CSC3)cc1 (stereo not given) | -2 | 4
COc1ccc(C(=O)Nn2cnc3sc(C)c(C)c3c2=O)cc1S(=O)(=O)N1CCCC1 | -2 | -2
Cc1oc(C)c(-c2ccccc2)c1C(=O)NCCc1cccc(Cl)c1 | 3 | -2
CC(=O)N1CCN(c2ncccc2CNC(=O)C2(N3CCCC3)CCCC2)CC1 | 4 | 0

Later entries
SMILES | NPYLR7 agonist | NPYLR7 agonist max-min
CC1(NC(=O)c2nc(-c3ccccc3)n3c2CCCCC3)CCS(=O)(=O)C1 (stereo not given) | -2 | -1
Cc1c(Cl)c([N+](=O)[O-])nn1CC(=O)NCc1ccco1 | 6 | 1
COc1cc(-c2n[nH]c(=S)n2C2CCCCC2)cc(OC)c1OC | 5 | 4
COc1cc(/C=C2/C(=O)N(c3ccc(Br)cc3)N=C2C)ccc1OCc1ccccc1 | -5 | 2
Cc1cccc(-c2cc(N)n(-c3ccc(C(=O)N[C@@H]4CCCc5ccccc54)cc3)n2)c1 | -5 | -8
Cc1ccc(-c2nc(CCNS(=O)(=O)c3c(C)noc3C)cs2)cc1 | 7 | 5
Cc1nc2ccccc2n1CCC(=O)N1CCC2(CCCN(C)C2=O)C1 (stereo not given) | -2 | -6
CC(C)c1c(C(N)=O)cnn1-c1ccccc1 | 13 | 14
CCc1nc2ccc(C(=O)N(C)Cc3ccco3)cn2c1N(C)C(=O)C1CCCCC1 | -10 | -13
CCOc1ccc(-c2cnc(C(C)(C)CN3CCOCC3)[nH]2)cc1 | 3 | 3
Cc1ccc(Cc2nc(N3CCCN(C(=O)c4ccc(F)cc4)CC3)c3c(C)nn(-c4ccccc4)c3n2)cc1 | 10 | 15
CNC(=O)c1ccsc1NC(=O)c1cc(C)nn1C | 4 | 1
CC(C)NC(=O)NC(=O)CN1C(=O)NC2(CCCCCC2)C1=O | 9 | 2
CC(=O)Nc1ccc(NC(=O)c2nnn(-c3ccc(C)cc3)c2C)cc1 | 2 | -8
Cc1ccc(Cn2ncc3c(N4CCOCC4)ncnc32)cc1 | 0 | 0
CC1(C)CC(=O)c2cc3c(N)c(C(=O)Nc4ccccc4C(F)(F)F)sc3nc2C1 | 1 | -2
O=C(NNc1cccc(Cl)c1)[C@@H]1CCCN1c1nccc(Nc2ccccc2)n1 | -4 | -6
Cc1cccc2c(=O)c(-c3ccc4c(c3)OCO4)c(NC(=O)CC(C)C)oc12 | 5 | 1
O=C(c1cccs1)N1CCC(c2nc(-c3cccnc3)no2)CC1 | 0 | -3
Cc1ccc2cc(CCNC(=O)c3ccccc3C)c(=O)[nH]c2c1 | 1 | 20
O=C(CCCSc1ccc(Cl)cc1)N1CCN(S(=O)(=O)c2ccc3c(c2)OCCO3)CC1 | -4 | -9
Cc1cccc(NC(=O)C2(c3ccc(Cl)cc3)CCCC2)n1 | -7 | -7
COc1ccc2c(c1)C1(SCCN1C(=O)NC1CCCCC1)C(=O)N2Cc1ccccc1Cl (stereo not given) | 6 | 11
Cc1nnc(CCNc2ccnc(C(=O)NC3CC3)c2)s1 | 8 | 5
O=C(O)CCN1C(=O)/C(=C/c2ccc(O)c(O)c2)SC1=S | 16 | 10
Cc1cc(C)n(CC(=O)O)n1 | -7 | -8
N=c1ccn2c(n1)OCC1C2O[C@@H](O)[C@H]1O (stereo not given in full) | 7 | 9
CN(Cc1ccccc1)C(=O)c1cnc2sccn2c1=O | 0 | -1
CC(NC(=O)C1CCCO1)c1ccc2c(c1)CCCC2 (stereo not given) | 0 | -1
Cc1cc(C)c(NC(=O)CNC(=O)CN2CCC3(CCCCCC3)C2)c(C)c1 | -1 | -3
CS(=O)(=O)c1ccc([C@@H](O)[C@@H](CO)NC(=O)C(Cl)Cl)cc1 | -15&-1 | -18&-6
